Compound activity (PubChem BioAssay)
TSHR ag = qHTS Assay for Agonists of the Thyroid Stimulating Hormone Receptor. Thyrotropin receptor (Homo sapiens), P16473. HEK293-CNG-TSHR cells (CNG channel as cAMP sensor), membrane potential dye, cAMP. Potency, µM (highest dose often 57.1 µM), for the others: top-dose activation, usual class: activators. hit rate 0.48% among 73,000; active = well fitted activation curve of enough size with the parental cells flat; inconclusive = any curve in the parental cells; inactive = parental cells flat and receptor cells flat or falling; further: potency means the concentration at half of the fitted maximal effect; % of control where 0% means no effect; weak receptor curves with flat parental cells got no call and are not listed
Target sequence (P16473 whole entry, looked up): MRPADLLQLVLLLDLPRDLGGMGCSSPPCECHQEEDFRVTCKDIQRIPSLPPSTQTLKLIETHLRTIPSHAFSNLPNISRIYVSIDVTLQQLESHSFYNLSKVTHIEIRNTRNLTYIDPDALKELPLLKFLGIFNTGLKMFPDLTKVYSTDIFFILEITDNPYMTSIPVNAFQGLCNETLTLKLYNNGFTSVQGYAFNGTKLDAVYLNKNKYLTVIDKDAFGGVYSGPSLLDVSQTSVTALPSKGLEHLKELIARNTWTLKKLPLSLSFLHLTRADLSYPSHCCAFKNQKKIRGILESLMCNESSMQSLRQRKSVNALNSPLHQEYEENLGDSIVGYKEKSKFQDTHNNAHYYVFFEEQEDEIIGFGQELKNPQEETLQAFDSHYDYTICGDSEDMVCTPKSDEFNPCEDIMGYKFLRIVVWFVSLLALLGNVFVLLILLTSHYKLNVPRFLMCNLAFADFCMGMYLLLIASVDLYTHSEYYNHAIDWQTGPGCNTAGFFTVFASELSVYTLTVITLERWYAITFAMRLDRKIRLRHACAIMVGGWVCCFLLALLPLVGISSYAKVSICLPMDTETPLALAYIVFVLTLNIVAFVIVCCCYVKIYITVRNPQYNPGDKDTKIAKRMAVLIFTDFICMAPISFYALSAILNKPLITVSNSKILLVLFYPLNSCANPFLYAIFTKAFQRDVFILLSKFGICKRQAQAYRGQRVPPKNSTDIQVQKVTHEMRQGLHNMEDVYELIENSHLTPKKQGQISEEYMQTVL
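HEK 293 cells stably expressing TSHR and a modified CNG channel, with CNG-only parental cells as counterscreen, were preloaded 60 min at room temperature with membrane potential dye containing 100 uM RO 20-1724. Compound exposure was 30 min, and depolarization was read as fluorescence at 590 nm.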
A488 autofl = qHTS Assay for Spectroscopic Profiling in A488 Spectral Region; compound autofluorescence, A488 spectral region, dye equivalency; stronger effect = higher value; max dye equivalency, M; hit rate 0.1% among 59,000; AID 591, 2007; active = above 10 nM dye equivalent; inconclusive = 1 to 10 nM; inactive = 1 nM or less; about half of its hits are not listed in these tables;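 further: highest value over a series up to 38 µM; compound alone in buffer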
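Spectroscopic profiling in the A488 region: compounds in pH 8.0 Tris (100 mM), 15 min RT, CCD imaging with 480 nm excitation and 540 nm emission; responses normalized against A488 dye standards.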
A647 autofl = qHTS Assay for Spectroscopic Profiling in A647 Spectral Region; max dye-equivalent concentration, M; AID 592, 2007; Compound fluorescence, A647 channel (570/671 nm), Tris buffer; 59,000 tested, under 10 active; active means above 1 µM dye equivalent; inconclusive means 0.1 to 1 µM; inactive means 0.1 µM or less;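 further: values scaled relative to a standard on each plate; highest value over a series up to 38 µM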
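Compound fluorescence was measured in 100 mM Tris buffer, pH 8.0, after 15 min at room temperature, using 570 nm excitation and 671 nm emission filters. Signal was normalized to a per-plate Alexa 647 standard curve and expressed as dye-equivalent concentration at each compound concentration.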
AID923 = qHTS Assay for Allosteric/Competitive Inhibitors of Caspase-1: Spectroscopic Profiling in AFC Spectral Region; compound fluorescence, AFC spectral region (405/520 nm); almost no hit is shown here; Potency, µM (titrated, usually from 57.5 µM), for inactives: at the top dose fluorescence increase, hits mostly activators; hit rate 1.1% among 75,000; AID 923, 2007; active means well fitted activation curve with a large enough effect; inconclusive means small, poorly fitted or top-dose-only effect;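 further: potency means the concentration at half of the fitted maximal effect; 0% is about no effect; scaled to a free AFC standard on each plate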
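Compound autofluorescence profiled at 405 nm ex/520 nm em during kinetic caspase 1 run (50 nM enzyme, 5 uM Ac-WEHD-AFC, HEPES pH 7.5, 10 mM DTT). Titration up to 57 uM; baseline from regression intercept, normalized to AFC standard curve.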
Resorufin fluor = qHTS Assay for Spectroscopic Profiling in Resorufin Spectral Region. Compound fluorescence, resorufin region 547/598 nm, buffer; stronger effect = higher value. max dye-equivalent concentration, M. hit rate 0.04% among 59,000. AID 588, 2007; active = above 10 nM dye equivalent; inconclusive = 1 to 10 nM; inactive = 1 nM or less; a few of its hits are not listed in these tables; further: highest value over a series up to 38 µM
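Intrinsic fluorescence profiled in the resorufin window (ex 547 nm, em 598 nm) after 15 min at room temperature in pH 8.0 Tris buffer (100 mM); responses normalized against a six-point resorufin standard series as dye-equivalent concentration.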
The depositor's hits bear a star; i = inactive; ? = inconclusive; . = no result given; & = joins results of further samples; [ ] = remark or other dose. These rows are one share of the data, so the mix of outcomes need not match the whole.

SMILES	TSHR ag	A488 autofl	A647 autofl	AID923	Resorufin fluor
O=C(Nc1ccc(O)c(C(=O)O)c1)c1ccc2c(c1)C(=O)N(CC1CCCO1)C2=O (stereo not drawn)	-4%	i	4.7e-09	-0.4%	i
Cc1sc(NC(=O)CSc2nnc(COc3ccc(Cl)cc3)n2C)c(C#N)c1C	?	i	1.8e-08	0.8%	i
CCOC(=O)c1nnn(-c2nonc2N)c1CN1CCCCCC1	?	i	2.4e-08	1.2%	i
S=C(Nc1ccccn1)c1ccccn1	-4%	.	.	-1.0%	.
COc1ccc2cc(CN(C(=O)Nc3ccccc3)C3CCCC3)c(=O)[nH]c2c1	20%	i	1e-09	1.8%	i
CCOc1[nH]c(/N=C/c2ccco2)c(C#N)c1C#N	5%	i	5.7e-09	8.3%	i
Cc1cc(C(=O)CN2C(=O)NC(C)(c3cccc(Br)c3)C2=O)c(C)n1Cc1ccco1 (stereo not drawn)	-1%	i	1.9e-08	-0.3%	i
NC(=O)NC(CC(=O)OCC(=O)NC(=O)NCc1ccco1)c1ccc(Cl)cc1 (stereo not drawn)	4%	i	2.8e-08	0.7%	i
COc1ccc(CCN2C(=O)c3[nH]nc(-c4ccccc4O)c3C2c2ccccc2)cc1OC (stereo not drawn)	?	i	8.2e-09	-0.7%	i
CCC(=O)Nc1cccc(NC(=O)CN2CCN(c3ccccc3OC)CC2)c1	2%	i	1e-09	-2.9%	i
O=S(=O)(Nc1ccc(-c2cn3ccsc3n2)cc1)c1ccc2c(c1)OCCO2	.	i	6.1e-09	-0.7%	i
O=C(NCc1cccc(Cl)c1)c1cccnc1	-4%	i	1e-09	-1.1%	i
CCN1CCN(S(=O)(=O)c2ccc(S(=O)(=O)NCC3CCCO3)cc2)CC1 (stereo not drawn)	-11%	i	1.3e-09	0.4%	i
Cc1ccc(NC(=O)C2CC(=O)NC(Nc3cccc(C)c3)=N2)cc1 (stereo not drawn)	?	i	1e-08	-0.2%	i
CCOc1ccc(C(=O)C2CCN(C(=O)c3ccccc3C(=O)O)CC2)cc1	-3%	i	1.8e-08	0.8%	i
Cc1ccc(C)c(N(CC(=O)NCc2ccco2)C(=O)CCC(=O)Nc2ccccn2)c1	4%	i	1e-09	-0.4%	i
O=C(O)C1C2C=CC(C2)C1C(=O)NCCc1cccc(Cl)c1 (stereo not drawn)	2%	.	.	0.2%	.
CC(C)(C)OC(=O)N1CCC(c2c(C(=O)O)cnn2-c2ccc(Cl)cc2)CC1	9%	i	1e-09	-0.2%	i
CCCSc1nnc(-c2ccccc2N)c(=O)[nH]1	7%	.	.	1.7%	.
CCOc1ccc(-c2nnc(-c3ccncc3)o2)cc1	5%	i	3.7e-08	1.1%	i
O=S(=O)(c1ccccc1)c1nc(-c2ccco2)oc1NCc1cccnc1	?	i	2.4e-08	-0.3%	i
COc1cccc(-n2c(Cc3cc(=O)[nH]c(=O)[nH]3)nnc2SCC(=O)N2CCCCC2)c1	-1%	.	.	0.7%	.
Cc1ccc(-n2c(SCC(N)=O)nnc2-c2cccnc2)c(C)c1	7%	i	4.6e-09	-1.4%	i
CCOC(=O)C1=C(C)N=C2SC(C)C(=O)N2C1c1ccc(OCC)c(OCC)c1 (stereo not drawn)	13%	i	2.2e-09	2.2%	i
O=C1CC2CS(=O)(=O)CC2N1c1ccc(Oc2ccccc2)cc1 (stereo not drawn)	-4%	i	2.4e-08	2.0%	i

Further compounds.
SMILES	TSHR ag	A488 autofl	A647 autofl	AID923	Resorufin fluor
Cc1csc(NC(=O)NC2(C(F)(F)F)Oc3ccccc3O2)n1	-3%	i	1.3e-09	-0.4%	i
O=C(CN1CCc2ccccc2C1)N1CCN(S(=O)(=O)c2ccccc2)CC1	17%[11.4 µM]	i	3.3e-09	0.2%	i
O=C(Cn1nnc(-c2ccccc2-n2cnnn2)n1)N1CCCCC1	-3%	i	1.9e-08	5.0%	i
C=C(C)CNCCN	1%[11.4 µM]	i	3.2e-08	1.6%[11.5 µM]	i
Cc1cc(NS(=O)(=O)c2ccc(NC(=O)COc3ccccc3C(C)C)cc2)no1	-2%	.	.	-1.8%	.
CC(C)(C)c1ccc(S(=O)(=O)/C=C\C#N)cc1	?	i	4.5e-09	-1.7%	i
Cc1ccsc1C(=O)OCC(=O)N1CC(=O)Nc2ccccc21	4%	i	1.6e-09	0.5%	i
COc1cc(OC)cc(OCC(O)Cn2ccnc2)c1 (stereo not drawn)	-1%	i	1e-09	-0.7%	i
COCc1nnc(N)s1	-5%	i	1.6e-09	3.3%	i
O=C(Nc1ccc(Cl)c(C(F)(F)F)c1)c1ccco1	8%[11.4 µM]	.	.	0.1%	.
CCOc1ccc(C2C(C(=O)c3ccc(C)o3)=C(O)C(=O)N2CCN2CCOCC2)cc1OC (stereo not drawn)	.	i	1e-09	.	i
CCC(=O)NCC(c1cccs1)N1CCOCC1 (stereo not drawn)	-3%	i	1.6e-09	1.2%	i
COc1ccc(OC)c(S(=O)(=O)N2CCC(C(=O)NCCc3ccc(OC)c(OC)c3)CC2)c1	5%	i	7.5e-08	-1.1%	i
O=C(NCCc1nc2ccccc2[nH]1)c1ccco1	-3%	i	3.6e-08	-0.6%	i
COCCCNC(=O)C1CC(=O)N(CCc2ccc(OC)c(OC)c2)C1 (stereo not drawn)	-3%	i	1.5e-08	0.4%	i
O=C1CC(/C=C/c2ccco2)=Nc2ccccc2N1	11%	?	2.2e-08	-2.7%	i
COc1ccccc1N1CCN(S(=O)(=O)c2ccccc2)CC1	4%	i	5.4e-08	-2.1%	i
CCOC(=O)CCN1C(=O)[C@H]2[C@@H]3[C@H](O)[C@H](O)CC(=O)[C@H]3CC[C@H]2C1=O	-5%&-1%[11.4 µM]	.	.	-2.2%&0.0%[11.5 µM]	.
CCOC(=O)N1CCC(N2CC34C=CC(O3)C(C(=O)Nc3ccc(F)cc3)C4C2=O)CC1 (stereo not drawn)	-1%	.	.	1.9%	.
CC12CCC(C(=O)NCCCN3CCOCC3)(OC1=O)C2(C)C (stereo not drawn)	.	i	2.9e-08	.	i
COc1ccccc1C1NC(=O)CS1 (stereo not drawn)	-10%	.	.	5.5%	.
COc1cc2c(cc1OC)C(C)N(C(=O)CCN1C(=O)C3C4C=CC(C4)C3C1=O)CC2 (stereo not drawn)	-4%	i	5.2e-09	-0.7%	i
COCCNc1nc(-n2nc(C)cc2C)nc2sc3c(c12)CCCC3	?	i	1.9e-08	2.6%	i
Nc1nncn1C(=O)CCCOc1ccc(Cl)cc1Cl	9%	i	1e-09	-1.3%	i
COC(=O)N1CCC[C@@]2(CCN(c3ccncc3)C2)C1	0%	i	2.9e-08	-0.9%	i

Part of the list above in order of SMILES length, falling:
SMILES	TSHR ag	A488 autofl	A647 autofl	AID923	Resorufin fluor
CCOc1ccc(C2C(C(=O)c3ccc(C)o3)=C(O)C(=O)N2CCN2CCOCC2)cc1OC (stereo not drawn)	.	i	1e-09	.	i
Cc1cc(NS(=O)(=O)c2ccc(NC(=O)COc3ccccc3C(C)C)cc2)no1	-2%	.	.	-1.8%	.
O=C(CN1CCc2ccccc2C1)N1CCN(S(=O)(=O)c2ccccc2)CC1	17%[11.4 µM]	i	3.3e-09	0.2%	i
COCCNc1nc(-n2nc(C)cc2C)nc2sc3c(c12)CCCC3	?	i	1.9e-08	2.6%	i
O=C(Nc1ccc(Cl)c(C(F)(F)F)c1)c1ccco1	8%[11.4 µM]	.	.	0.1%	.
COc1ccccc1C1NC(=O)CS1 (stereo not drawn)	-10%	.	.	5.5%	.

Remaining list, next part:
SMILES	TSHR ag	A488 autofl	A647 autofl	AID923	Resorufin fluor
O=C(CSc1nnc(Cn2nnc3ccccc32)o1)N(Cc1ccc(F)cc1)c1ccccc1	?	i	1.1e-08	0.8%	i
COc1cccc(-n2nnc3c(=O)n(Cc4ccccc4F)cnc32)c1	?	i	1e-09	1.1%	i
O=C(CCN1C(=O)C2C3C=CC(C3)C2C1=O)Nc1ccccc1F (stereo not drawn)	9%	i	1e-09	0.3%	i
COC(=O)C1(CO)NC(c2cccs2)C2C(=O)N(c3ccccc3)C(=O)C21 (stereo not drawn)	?	i	4.7e-09	2.9%	i
CC(C)C(=O)Nc1ccccc1N1CCN(C(=O)c2ccccc2)CC1	2%	i	1e-09	-0.5%	i
COc1cc(-c2ccc(NC(=O)CN3CCCCC3)c(OC)c2)ccc1NC(=O)CN1CCCCC1	0%	i	1.8e-08	0.8%	i
COc1ccc(NC(=O)c2cccs2)cc1OC	-9%	i	5.3e-09	1.0%	i
COC(=O)c1ccc(C(=O)Nc2ccc(N)cc2N)cc1	3%	i	2e-08	4.2%	i
N#CC1=C(N)N(c2ccccc2)C2=C(C(=O)CCC2)C1c1cccs1 (stereo not drawn)	-2%[11.4 µM]	i	4.8e-09	1.2%	i
Cc1ncc(CO)c2cc(S(=O)(=O)c3ccc(F)cc3)c(=O)oc12	-6%	.	.	0.0%	.
CCCN1CCC(N2CCN(c3ccccc3OC)CC2)CC1	2%[11.4 µM]	.	.	1.3%	.
COC(=O)c1ccc2c(c1)S(=O)(=O)NC(=NCCCN1CCOCC1)S2	?	i	1.4e-08	-1.2%	i
CC(C)Cc1cc(C(=O)Nc2ccc3c(c2)OCO3)no1	5%	.	.	2.5%	.
CCOC(=O)Cc1[nH]nc2c1C(c1cccc(OC)c1OC)C(C#N)=C(N)O2 (stereo not drawn)	.	i	3e-08	-1.4%	i
COc1ccc(CCNC(=O)c2cc(-c3ccccc3O)n[nH]2)cc1OC	.	i	2e-08	-0.7%	i
OC1CNCc2cc3c(cc21)OCCO3 (stereo not drawn)	-6%	i	1.8e-08	1.8%	i
CCCn1c(-c2ccc(F)cc2)nc2c(NCCN(C(C)C)C(C)C)nc(C)nc21	?	.	.	-1.2%	.
Cc1ccc(S(=O)(=O)N(C)CCCC(=O)N2CCOCC2)cc1	1%	.	.	-0.3%	.
COC(=O)c1cc(=O)n2c(-c3ccccc3)csc2n1	2%	i	7.8e-09	-1.5%	i
CN(C)c1ccc(-c2noc(C3CCN(S(=O)(=O)c4ccc(C(=O)O)cc4)CC3)n2)cc1	-11%	i	1.9e-09	-2.8%	i
CCS(=O)(=O)N1CCCC(C(=O)NC2CCCCC2C)C1 (stereo not drawn)	0%	i	3.3e-09	0.7%	i
COc1ccc(OC)c(C(c2nnnn2CCc2ccccc2)N2CCC(C(N)=O)CC2)c1 (stereo not drawn)	-3%	i	1.5e-08	0.0%	i
O=C(NCC1CCCO1)C(C(=O)c1ccccc1)n1ccccc1=O (stereo not drawn)	-4%	i	2e-08	-4.1%	i
COc1ccccc1CNC(=O)C1CCN(S(=O)(=O)N2CC(C)CC(C)C2)CC1 (stereo not drawn)	-1%	i	1e-09	1.4%	i
COc1cc(CN2CCC(C(=O)NC3CCCC3)CC2)ccc1O	5%	i	4e-08	-1.8%	i

Single records, from the list above. Order of values: TSHR ag | A488 autofl | A647 autofl | AID923 | Resorufin fluor
Listed for COc1cc(CN2CCC(C(=O)NC3CCCC3)CC2)ccc1O : 5% | i | 4e-08 | -1.8% | i
Listed for Cc1ncc(CO)c2cc(S(=O)(=O)c3ccc(F)cc3)c(=O)oc12 : -6% | . | . | 0.0% | .
